MT1-MMP promoter: inhibitors of MT1-MMP promoter transcription, cell-based, luciferase reporter, luminescence (AID 618). MT1-MMP promoter luciferase reporter cells, luminescence. calls from a first round at 10 µM; hits with a dose series show EC50 in µM. 87,000 compounds, 0.62% hits;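 active = over half of the reporter light lost at 10 µM or EC50 under 50 µM; inactive = the rest and hits that failed the dose series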;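 note: actives suppress MT1-MMP promoter-driven transcription so potencies describe inhibitors; HT1080 fibrosarcoma cells; overnight exposure; toxic or luciferase-blocking compounds were not removed from the actives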
WNV protease inh: WNV NS2B-NS3 proteinase inhibition; WNV NS2B-NS3 protease, fluorogenic substrate Ex360/Em465; hits give low values; z-score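 (tested at a level between 10 and 100 µM)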; 65,000 compounds, 0.18% hits; AID 577;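 active = z-score at -3 or under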;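 note: score is relative to mean and spread of the compound wells of a plate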
Target sequence (P06935 1371-1501 limits assumed): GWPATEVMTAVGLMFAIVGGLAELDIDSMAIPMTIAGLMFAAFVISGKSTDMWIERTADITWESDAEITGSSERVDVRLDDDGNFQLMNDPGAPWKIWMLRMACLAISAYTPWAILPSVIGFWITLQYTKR
Target sequence (P06935 1502-1679 limits assumed): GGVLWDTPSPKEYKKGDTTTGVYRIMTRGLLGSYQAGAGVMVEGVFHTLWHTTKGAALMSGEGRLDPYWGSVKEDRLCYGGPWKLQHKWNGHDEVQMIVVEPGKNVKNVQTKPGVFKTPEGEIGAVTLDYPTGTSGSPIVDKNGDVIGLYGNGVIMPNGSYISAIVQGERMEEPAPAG
Hsc70 ATP site: Hsc70 inhibitors, probe displacement, primary screen, biochemical, fluorescence polarization (AID 568); Hsc70 fluorescence polarization, probe displacement; higher % means a stronger effect; strong numbers were not always called active; displacement, % at 20 µM, or IC50 in µM where a hit was titrated; 83,000 tested, under 10 active;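 active = displacement above 50% without optical interference and an IC50 on retest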;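 note: ATPase domain with a fluorescein-tagged ATP probe; 0% = vehicle and 100% = excess ADP; read after one hour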
The depositor's hits bear a star; i = inactive; . = not tested or not shown; + = active, no number.

Sample of the layout, 7 compounds:
Results follow in this order: MT1-MMP promoter	Hsc70 ATP site	WNV protease inh
CCOc1ccc(N2CC(=O)Nc3ccccc3NCC2=O)cc1
    i	0.4%	0.62
Cn1cc(C(=O)NCCc2ccccc2)c(=O)c2cc(S(=O)(=O)N3CCOCC3)ccc21
    i	5.0%	-1.1
N#CC1=C(N)Oc2n[nH]c(-c3cccs3)c2C1c1ccoc1 (stereo not given)
    i	-12%	0.15
O=C(COc1ccccc1Cl)OCC(=O)N1CCN(S(=O)(=O)c2ccccc2)CC1
    i	-0.3%	0.06
CCc1ccc(-c2nc(CSCC(=O)N3CCN(c4ccccn4)CC3)c(C)o2)cc1
    i	-2.6%	-0.2
CC(=O)Oc1cc2c(C(=O)NCCN3CCOCC3)c(C)oc2c2ccccc12
    i	-1.0%	0.01
COC(=O)c1ccccc1NC(=O)C(C)Oc1ccccc1 (stereo not given)
    i	-3.3%	-0.63

This part in full, previewed entries included:
Results follow in this order: MT1-MMP promoter	Hsc70 ATP site	WNV protease inh
CCOc1ccc(N2CC(=O)Nc3ccccc3NCC2=O)cc1
    i	0.4%	0.62
Cn1cc(C(=O)NCCc2ccccc2)c(=O)c2cc(S(=O)(=O)N3CCOCC3)ccc21
    i	5.0%	-1.1
N#CC1=C(N)Oc2n[nH]c(-c3cccs3)c2C1c1ccoc1 (stereo not given)
    i	-12%	0.15
O=C(COc1ccccc1Cl)OCC(=O)N1CCN(S(=O)(=O)c2ccccc2)CC1
    i	-0.3%	0.06
CCc1ccc(-c2nc(CSCC(=O)N3CCN(c4ccccn4)CC3)c(C)o2)cc1
    i	-2.6%	-0.2
CC(=O)Oc1cc2c(C(=O)NCCN3CCOCC3)c(C)oc2c2ccccc12
    i	-1.0%	0.01
COC(=O)c1ccccc1NC(=O)C(C)Oc1ccccc1 (stereo not given)
    i	-3.3%	-0.63
CCCOC(=O)CC1C(=O)NCCN1Cc1ccc(F)cc1 (stereo not given)
    i	6.0%	-0.91
CC12CC(NC(=O)N1c1ccc(C(=O)N3CCN(c4ccccn4)CC3)cc1)c1ccccc1O2 (stereo not given)
    i	1.7%	-0.83
COc1cc(-c2nnc(COc3ccc4cc(Br)ccc4c3)o2)cc(OC)c1OC
    i	0.7%	0.03
CCOc1ccc(C(=O)CN2CCN(S(=O)(=O)c3ccc(Cl)cc3)CC2)cc1
    i	2.8%	1.2
Nc1ccnn1Cc1cccnc1
    i	-5.1%	1.8
N#CC(C(=O)NC1CCCCC1)c1nc2ccccc2nc1N1CCOCC1 (stereo not given)
    i	23%	0.13
CCN(CC)C(=O)CNC(=O)Cc1ccc(Cl)cc1
    i	-3.6%	.
Cc1cc(C(=O)NCCCN2CCN(C3CCCCC3)CC2)n(-c2ccccc2)n1
    i	-5.8%	0.42
CN1C(=O)c2cccc3c(S(=O)(=O)NCc4ccco4)ccc1c23
    i	10%	1.1
Cc1onc(-c2c(Cl)cccc2Cl)c1C(=O)NCc1ccco1
    i	-4.4%	-0.24
COc1ccccc1OCC(=O)Nc1ccc(Cl)cc1
    i	-5.7%	.
CCOc1ccc(N2CC(C(=O)Nc3ccccc3N3CCOCC3)CC2=O)cc1 (stereo not given)
    i	-2.3%	.
Fc1ccc2c(Cl)c(-c3nnc(-c4cccs4)o3)sc2c1
    i	-2.0%	0.36
COCCNC(=O)C(c1ccccc1)N(C(=O)Cn1nnc2ccccc21)c1cccnc1 (stereo not given)
    i	-3.9%	-0.2
COc1ccc(C2(CCN)CC(C)N(C)CC2C)cc1 (stereo not given)
    i	10%	0.49
Cc1oc2ncnc(N)c2c1C
    i	-1.0%	0.47
Cc1ccc(NC(=O)CCSc2nnc(-c3ccco3)o2)cc1
    i	-8.3%	1.6
CCCNC(=O)COc1ccc(S(=O)(=O)Nc2ccc(C)cc2)cc1
    i	-3.6%	.
Cc1ccc(C)c(NC(=O)CN(C)S(=O)(=O)c2ccccc2)c1
    i	-1.6%	0.26
c1csc(CN2CCOCC2)c1
    i	-0.2%	.
CN1C(=S)SC(N(O)C(=O)Nc2ccccc2)C1(C)C (stereo not given)
    i	-5.3%	-0.93
Cc1oc(C(=O)O)cc1CSc1nnc(-c2ccccc2)n1C
    i	3.0%	-0.09
Cc1ccc(-n2c(=O)[nH]c3c(C(N)=O)nc(CC(C)C)nc32)cc1
    i	0.8%	0.96
CN1CCN(CC(=O)N(Cc2c(C#N)c3ccccc3n2C)c2ccccc2)CC1
    i	0.1%	2.9
CCC(=O)N(Cc1ccco1)c1nc(-c2cc(OC)ccc2OC)cs1
    i	2.1%	-0.2
CC(c1ccccc1)N1CCn2c(nc3cc(NC(=O)c4cccs4)ccc32)C1 (stereo not given)
    i	-8.4%	.
CCCCCOC(=O)Cc1c(O)c2ccccc2[nH]c1=O
    i	3.1%	1.2
Cc1cc(NC(=O)Cn2cnc3sc(C)c(-c4ccccc4)c3c2=O)no1
    i	-0.1%	-0.92
Cc1nc2cc(NC(=O)N3c4ccccc4CC3C)ccc2n1C (stereo not given)
    +	-0.3%	-0.06
CSc1cccc(NC(=O)C2CCCN2S(=O)(=O)c2ccc(Br)s2)c1 (stereo not given)
    i	2.2%	.
N#Cc1nc(-c2ccc(OCc3ccc(Cl)cc3)cc2)oc1N1CCOCC1
    i	-2.1%	0.77
CC1CN(c2cc(=O)n(-c3cccc(Br)c3)c(=O)[nH]2)CC(C)O1 (stereo not given)
    i	5.4%	-1.1
COc1ccc2cc(C(=O)NCCO)sc(=O)c2c1OC
    i	1.5%	.

Single records, from the list above.
`CN1C(=S)SC(N(O)C(=O)Nc2ccccc2)C1(C)C` (stereo not given) in the list: MT1-MMP promoter = i; Hsc70 ATP site = -5.3%; WNV protease inh = -0.93
`c1csc(CN2CCOCC2)c1` in the list: MT1-MMP promoter = i; Hsc70 ATP site = -0.2%; WNV protease inh = .

Additional results:
Results follow in this order: MT1-MMP promoter	Hsc70 ATP site	WNV protease inh
O=c1[nH]cnc2cc(Cl)ccc12
    i	1.8%	2.4
COCCOC(=O)c1cc(C(=O)c2cc(F)ccc2O)coc1=N
    i	-3.6%	-0.84
COc1ccccc1-c1nc(SCC(=O)O)n[nH]1
    i	-5.8%	1.4
Cc1cnc(NC(=O)C(C)N2C(=O)C3CC=CCC3C2=O)s1 (stereo not given)
    i	1.1%	-3.4*
Cn1cc(C(=O)c2ccc(Cl)cc2)cc1-c1nc2ccccc2n1C
    i	2.8%	0.78
COc1ccc(C(OC(=O)c2ccco2)C(=O)NCc2ccc(C)cc2)cc1 (stereo not given)
    i	-0.2%	.
Cn1c(=O)c2c(nc(Cl)n2Cc2ccc(Cl)c(Cl)c2)n(C)c1=O
    i	6.4%	.
COc1ccc(S(=O)(=O)N(CCCN2CCOCC2)Cc2cccc(OC)c2OC)cc1
    i	-0.3%	.
CN1C(=O)C(O)(C2COC(C)(C)CC2=O)c2cc(Br)ccc21 (stereo not given)
    i	-0.7%	0.33
Cc1cc(C)nc(NC2=NCC(=O)N2c2ccc(F)c(Cl)c2)n1
    i	0.7%	-0.38
O=C1CCCCC1Sc1nnc(Cc2cccs2)n1CCc1ccccc1 (stereo not given)
    i	3.5%	0.57
CC(C)C(C)NC(=O)COc1ccc(-c2ccccc2)cc1 (stereo not given)
    i	-1.4%	.
O=C(NC(C(=O)c1ccccc1)N1CCCCC1)c1ccccc1 (stereo not given)
    i	2.6%	1.4
Cn1c(-c2ccc3c(c2)OCO3)cnc1NCc1ccccc1
    i	3.1%	-0.18
Cc1cnc(-c2nnc(N(C)C(=O)C3CCOC3)s2)cn1 (stereo not given)
    i	7.1%	-1.2
CN1C(=O)N(C)C2(c3ccccc3)Nn3c(s/c(=C/c4ccco4)c3=O)=NC12c1ccccc1 (stereo not given)
    i	-0.7%	0.09
COc1ccc(-c2nc(SCC(=O)N3CCOCC3)n[nH]2)cc1
    i	4.3%	-0.04
CCSc1nnc(NC(=O)c2cccnc2)s1
    i	8.9%	-0.48
COc1ccc(NC(=O)CCCN2C(=O)C3C4C=CC(C4)C3C2=O)c(OC)c1 (stereo not given)
    i	-2.1%	1
COC(=O)Nc1ccc(S(=O)(=O)n2cnc3ccccc32)cc1
    i	3.2%	.
CCn1c(=O)n(CC(=O)Nc2cc(OC)c(OC)c(OC)c2)c(=O)c2ccccc21
    i	-0.8%	.
Cc1cc(=O)n2[nH]c(N3C(=O)CCC3=O)nc2n1
    i	-3.0%	-0.02
Cc1cc(C(=O)OC(C)C(=O)Nc2cccc(S(=O)(=O)N3CCOCC3)c2)c(C)o1 (stereo not given)
    i	-3.3%	.
COc1ccc(NC(=O)COC(=O)c2ccc(N3CCCC3=O)cc2)cc1OC
    i	11%	-1.5
Cc1cc(OCCCC(=O)N2CCCCC2)cc(C)c1Cl
    i	5.9%	0.36
O=C(Cc1ccccc1)CC1(O)C(=O)Nc2ccccc21 (stereo not given)
    i	1.1%	-2.2
COc1ccc(-n2c(N)c(-c3nc4ccccc4n3C)sc2=S)cc1
    i	-7.3%	-0.44
COc1cccc(C(=O)Nc2ccc(S(=O)(=O)NCc3ccco3)cc2)c1
    i	-1.0%	0.27
CCOC(=O)c1c(CN2CCOCC2)oc2ccc(OC)cc12
    i	0.5%	0.55
Cc1[nH]c(=O)[nH]c1C(=O)CCCCC(=O)OCC(=O)Nc1ccccn1
    i	1.1%	0.51
COC(=O)C1CCN(S(=O)(=O)c2c(C)n(C)c(=O)n(C)c2=O)CC1
    i	0.7%	0.86
CCOc1ccccc1C1NC(=O)NC(C)=C1C(=O)OC1CCCCC1 (stereo not given)
    i	-1.7%	-0.81
COc1ccc(C)cc1S(=O)(=O)N(C)CC(=O)N1CCCCC1
    i	2.6%	.
Cc1ccc(C(=O)CSc2nc3ccccc3o2)cc1
    i	-22%	.
CCOC(=O)N1CCN(C(=O)c2ccc3c(=O)n(CCc4ccccc4)c(=S)[nH]c3c2)CC1
    i	-2.3%	0.72
CCN1C(=O)c2cccc3c(NC(=O)c4cccc(N5C(=O)CCC5=O)c4)ccc1c23
    i	-2.3%	-1.1
CCC(=O)N1CCc2cc(Br)cc(S(=O)(=O)NCCN3CCCCC3C)c21 (stereo not given)
    i	-8.2%	-0.78
O=C(COc1ccc(S(=O)(=O)NCc2ccccc2)cc1Cl)N1CCOCC1
    i	3.0%	0.79
Cc1nc2c(C#N)c(C)[nH]n2c(=O)c1Cc1ccccc1
    i	-8.4%	.
CCOc1ccc2cc(C#N)c(SCC(=O)N3CCC(C)CC3)nc2c1
    i	-23%	0.64
O=c1c(Cc2ccccc2O)c(O)nc2n1CCCS2
    i	5.8%	0.13
C=CCOC(=O)C1=C(C)N=C2SCCC(=O)N2C1c1ccc(OC(=O)c2ccco2)cc1 (stereo not given)
    i	3.0%	-0.04
CCC1(C)Cc2ccccc2-c2nc3n(c(=O)c21)CC(C(=O)O)S3 (stereo not given)
    i	-1.8%	-0.83
CCc1ccccc1NC(=O)c1nnn(CC(=O)Nc2cccc(C)c2)c1N
    i	3.9%	-0.03
CCC(=O)c1ccc(OCC(O)CN2CC(C)OC(C)C2)cc1 (stereo not given)
    i	8.2%	-0.63
CCn1ncc(C2=NOC(C(=O)Nc3cnn(C45CC6CC(CC(C6)C4)C5)c3)C2)c1C (stereo not given)
    i	2.1%	-0.28
O=C(CSc1ncn[nH]1)Nc1nc(-c2ccccc2)ns1
    i	-7.5%	1.4
Cc1c(N2C(=O)c3ccc4c5c(ccc(c35)C2=O)CC4)c(=O)n(-c2ccccc2)n1C
    i	-2.8%	-1
Cc1cccn2c(=O)c3cc(C(=O)NCc4cccnc4)c(=N)n(C)c3nc12
    i	6.3%	0.44
CC(C)OCCCN1CN(S(=O)(=O)c2cccc(Cl)c2)c2nc3ccccc3nc21
    i	2.2%	.
O=C(NCc1ccco1)NCC(F)(F)F
    i	3.4%	1.1
CCc1ccc(CNc2ccc(O)cc2)cc1
    i	0.6%	0.03
O=C(Nc1sc2c(c1C(=O)NCc1cccnc1)CCCC2)c1ccco1
    i	1.8%	-2.5
Cc1ccc(C)n1-c1ccc(N2CCOCC2)nc1
    i	8.1%	-1.9
CCCSc1nc(N)cc(=O)[nH]1
    i	4.8%	-0.59
Cc1ccc(C(C(=O)NCc2ccco2)N(Cc2ccco2)C(=O)CNC(=O)c2ccco2)cc1 (stereo not given)
    i	0.0%	-0.4
Nc1nonc1C(=O)NCCNCc1cc(Br)ccc1OCc1ccc(F)cc1
    i	-4.1%	-1.3
CCNc1nc(Oc2ccc(C(=O)OC)cc2)nc(SC)n1
    i	-1.9%	1.9
COc1ccccc1C(CC(N)=O)c1ccco1 (stereo not given)
    i	-1.1%	.
O=C(NCC1CCCO1)c1ccc(C(=O)NCC2CCCO2)cc1 (stereo not given)
    i	-7.3%	0.32

More records
Results follow in this order: MT1-MMP promoter	Hsc70 ATP site	WNV protease inh
CCOC(=O)CNC(=O)CSc1nnc(-c2ccncc2)n1-c1ccc(Cl)cc1
    i	5.5%	.
CCOc1ccc(-n2ccnc2SCC(=O)Nc2nnc(CC)s2)cc1
    i	3.6%	-0.31
O=C1OC(c2ccccc2)C2(CCCC2)C(=O)C12CCCC2 (stereo not given)
    i	-0.2%	.
O=C(COc1ccc(Br)cc1)N1CCOCC1
    i	2.6%	.
O=C(NCCc1ccc(Cl)cc1)C1CCN(S(=O)(=O)N2CCCCC2)CC1
    i	0.5%	1.2
